PV pol inh: poliovirus RdRp elongation inhibitors, primary screen, biochemical, fluorescence polarization, total intensity; Genome polyprotein (Poliovirus type 1 (strain Mahoney)), P03300; poliovirus polymerase elongation; stronger effect = lower value; % elongation, % (compound at 16.7 µg/mL); actives 0.66% (n = 150,000); AID 588519, 2011; in the data active = % elongation below about 90%; also: some results filed as inactive read as strong as hits
Target sequence (P03300 1749-2209 limits assumed): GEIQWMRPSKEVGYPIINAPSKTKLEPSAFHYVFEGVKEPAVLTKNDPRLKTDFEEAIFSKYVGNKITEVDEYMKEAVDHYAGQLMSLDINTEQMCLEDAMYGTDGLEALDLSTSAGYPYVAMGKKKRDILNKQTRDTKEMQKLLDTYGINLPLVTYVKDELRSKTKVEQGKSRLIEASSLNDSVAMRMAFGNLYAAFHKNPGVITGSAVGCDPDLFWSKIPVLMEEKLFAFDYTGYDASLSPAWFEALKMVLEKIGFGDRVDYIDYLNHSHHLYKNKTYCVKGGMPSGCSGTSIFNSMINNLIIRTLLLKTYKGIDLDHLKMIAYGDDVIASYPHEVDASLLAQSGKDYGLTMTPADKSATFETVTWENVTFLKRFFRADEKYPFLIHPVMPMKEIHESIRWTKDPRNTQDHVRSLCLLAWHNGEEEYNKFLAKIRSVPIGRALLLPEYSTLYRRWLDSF
PV pol inh intensity: second read-out of PV pol inh, no call of its own (marks repeat the call); % elongation; measured here: total intensity read-out; formula for this scale not given here;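 total fluorescence in place of polarization; lower means less elongation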
An asterisk follows results filed as active.

SMILES	PV pol inh	PV pol inh intensity
O=C(CCC1N=C2c3ccccc3N=C(SCc3ccccc3Cl)N2C1=O)NCCc1ccccc1 (stereo unspecified)	107	105
Cc1c(Cl)cccc1-n1ncc(C(=O)Nc2ccc(F)cc2F)c1C1CCN(C(=O)OC(C)(C)C)CC1	108	114
Cc1nn2c3c(cnc2c1-c1ccc(F)cc1)C(=O)CC(c1ccccc1)C3 (stereo unspecified)	103	111
Cc1cc(C)cc(NC(=O)N2CCN(c3cc(-c4noc(C)n4)ccc3C)CC2)c1	102	104
COc1cc(CN(C(=O)c2cccc(C)c2)c2ccccn2)cc(OC)c1OC	111	113
Cc1ccc(CNC(=O)CSc2nc(=O)[nH]c3c2CCCC3)cc1	108	108
COc1ccc(C)cc1Nc1ncnc2c1c(-c1ccccc1)cn2-c1ccc(C)cc1	111	111
CCc1nc2sc3c(N4CCC(C)CC4)ncnc3c2c2c1CCCC2	101	96
O=C(Cn1nc(-c2ccc(Cl)cc2)c2ccccc2c1=O)Nc1cccc(C(F)(F)F)c1	108	112
Cn1c(=O)c(=O)n(C)c2cc(S(=O)(=O)N3CCCC3C(=O)Nc3cccc(F)c3)ccc21 (stereo unspecified)	105	111

SMILES	PV pol inh	PV pol inh intensity
CCc1nn(CC(=O)NCCc2ccc(OC)cc2OC)c(=O)c2cc3occc3n12	102	105
Cc1ccc2c(=O)c(C(=O)c3cccc(Cl)c3)cn(CC(=O)NCc3ccc(F)cc3)c2n1	105	107
COc1cccc(CNC(=O)c2c(C)oc3ncnc(N4CCOCC4)c23)c1	108	114
COc1ccc(NC(=O)CSc2ccc(-c3cccs3)nn2)cc1	102	103
COc1ccc(NC(=O)Cc2c(C(=O)O)[nH]c3ccccc23)cc1OC	108	107
COc1ccc(Br)cc1CNC(=O)c1cc(=O)[nH]c2ccc(S(=O)(=O)N3CCCCC3)cc12	103	101
CSc1ccc(-c2nc3c(C)cccn3c2Nc2ccc3c(c2)OCCO3)cc1	111	113
COc1ccc(CCNS(=O)(=O)c2ccc(F)c(C(=O)Nc3ccc(Cl)cc3)c2)cc1OC	107	98
CCOC(=O)c1sc2ccccc2c1S(=O)(=O)N1CCN(c2ccccc2)CC1	99	102
COc1ccc(S(=O)(=O)N2Cc3ccccc3CC2C(=O)Nc2cccc(C)c2)cc1OC (stereo unspecified)	107	111

SMILES	PV pol inh	PV pol inh intensity
COc1cc(NC(=O)CN2CCN(c3ccc(F)cc3)CC2)cc(OC)c1	113	112
CCn1cc(/C=C(\NC(=O)c2ccc(C)cc2)C(=O)NCCCn2ccnc2)c2ccccc21	104	107
CN(C)c1ccc(C(CNS(=O)(=O)c2ccc(Br)cc2)N2CCOCC2)cc1 (stereo unspecified)	99	109
Cc1cc(C)cc(OCc2cc(=O)n3c(-c4ccccc4)csc3n2)c1	110	119
CC(=O)N1CCOc2cc(S(=O)(=O)Nc3cccc(C(F)(F)F)c3)c(Cl)cc21	109	102
CC1=C(C(N)=O)C(c2ccc(F)cc2)n2nc(-c3ccc(N(C)C)cc3)nc2N1 (stereo unspecified)	103	108
O=C(Nc1ccc(Br)cc1)c1cc(S(=O)(=O)N2CCc3ccccc32)ccc1F	113	107
CC(C)CCNC(=O)c1ccc2nc(CCc3ccccc3)oc2c1	109	113
CCOC(=O)c1ccc(NC(=O)CSc2ccc3ccccc3n2)cc1	105	97
O=C(Cn1c(=O)c2cccn2c2ccc(F)cc21)NCc1cccc(Cl)c1	113	119

SMILES	PV pol inh	PV pol inh intensity
Cc1ccc2c(=O)cc(C(=O)Nc3sc4c(c3C(=O)NCc3ccco3)CCC4)oc2c1	106	108
O=C1C(=O)N(C2CCN(S(=O)(=O)c3ccccc3)CC2)CCN1Cc1ccccc1	108	115
COC(=O)c1ccccc1NC(=O)Cn1cnc2sc(C)c(S(=O)(=O)N3CCC(C)CC3)c2c1=O	105	105
CC(=O)Nc1cc(C(=O)NCc2ccc(F)cc2)ccc1S(=O)(=O)c1ccc(C)cc1	109	110
COC(=O)c1ccc(NC(=O)CN2C(=O)CCc3cc(S(=O)(=O)N4CCCCC4)ccc32)cc1	105	104
Cc1cc(C)cc(-n2ccn(Cc3ccc(F)cc3)c(=O)c2=O)c1	102	102
O=C(Nc1nnc(S(=O)(=O)N2CCCc3ccccc32)s1)c1ccccc1Br	114	114
CCC1CCCCN1S(=O)(=O)c1ccc(C(=O)Nc2sc3c(c2C(N)=O)CCC3)cc1 (stereo unspecified)	106	112
Cc1cc(Cl)ccc1OCC(=O)N(Cc1ccc(N(C)C)cc1)CC1CCCO1 (stereo unspecified)	103	93
CC(=O)N1c2ccccc2C(=O)C1N1CCN(c2cc(Cl)ccc2C)CC1 (stereo unspecified)	104	99

SMILES	PV pol inh	PV pol inh intensity
CCOC(=O)CSc1nc(-c2ccc(F)cc2)cc(C(F)(F)F)c1C#N	98	100
CCOC(=O)N1CCN(c2ncc3c(n2)CC(c2ccc(OC)c(OC)c2)CC3=O)CC1 (stereo unspecified)	108	111
COCCCNC(=O)N1CCN(c2nnc(C)c3c(C)n(-c4ccc(Cl)cc4)nc23)CC1	103	107
CCCc1cc(=O)[nH]c(Nc2ccc(OCC)cc2)n1	110	104
CCOc1cccc(C2c3[nH]c4ccccc4c3CCN2C(=O)CSCc2ccc(F)cc2)c1 (stereo unspecified)	111	99
COc1ccc(N2CCN(CCCNC(=O)c3ccc4nc(Cc5ccccc5)oc4c3)CC2)cc1	107	111
CCn1c(SCC(=O)Nc2cc(C)ccc2F)nnc1-c1ccccc1O	110	112
CCC(C)NC(=O)c1sc2nc(C)c(C(=O)Nc3ccc(C)cc3C)c(-c3ccc(NC(C)=O)cc3)c2c1N (stereo unspecified)	102	107
CCC(C)NC(=O)CSc1nc2cc3c(cc2c(=O)n1CCCC(=O)NCc1ccc2c(c1)OCO2)OCO3 (stereo unspecified)	107	113
COc1ccc(OC)c(CCNc2ncnc3onc(-c4ccc(Cl)cc4)c23)c1	113	102

structure	PV pol inh	PV pol inh intensity
COCCN1C(=O)c2[nH]nc(-c3ccccc3O)c2C1c1ccc(OCc2ccccc2)c(OC)c1 (stereo unspecified)	106	108
CC1=C(C(=O)Nc2ccc(Cl)cc2)C(c2ccc(C(F)(F)F)cc2)n2nnnc2N1 (stereo unspecified)	106	110
COc1ccc(CCNC(=O)CCCn2nc(C)c3sc4ccccc4c3c2=O)cc1OC	112	114
CCOc1ccc(NC(=O)CNS(=O)(=O)c2ccc(Br)s2)cc1	104	105
COc1ccc2c(c1)c1c(c(=O)n(Cc3ccccc3)c(=O)n1Cc1ccccc1Cl)n2C	112	108
O=C(/C=C/c1ccco1)Nc1ccc(F)cc1	105	103
N#Cc1ccccc1Cn1c(SCC(=O)NCc2ccccc2)nc2ccccc21	106	105
COc1ccc(NC(=O)CSc2ccc3nc(-c4ccccc4)cn3n2)cc1OC	104	96
CN1C(=O)c2ccccc2Sc2ccc(NC(=O)Nc3ccccc3F)cc21	104	99
CC1=C(c2ccc(C)c(C)c2)S(=O)(=O)N=C1N1CCC(C(=O)NC(C)c2ccccc2)CC1 (stereo unspecified)	111	114
COc1ccc(-c2cc3nc(C4CCN(C(=O)OC(C)(C)C)CC4)c(C(=O)Nc4cc(C)cc(C)c4)cn3n2)cc1	106	106
CCn1c(SC)nc2c([nH]c3ccccc32)c1=O	104	105
COc1ccccc1Nc1nn2c(=O)c3ccc(C(=O)NCCc4ccccc4)cc3nc2s1	105	105
CCn1c(C(=O)N2CCCC(C(=O)N3CCN(c4cc(C)ccc4C)CC3)C2)cc2sccc21 (stereo unspecified)	104	108
Cc1ccc(CCNC(=O)CCS(=O)(=O)c2ccc3c(c2)oc(=O)n3C)cc1	113	114
Cn1c2c(c(=O)n(C)c1=O)C(c1ccccc1C(F)(F)F)CC(=O)N2 (stereo unspecified)	108	110
Cc1cc(C)n(CCc2nc3c4ccccc4nc(SCc4ccc(F)cc4)n3n2)n1	106	110
O=C(CSCn1nnc2c(=O)[nH]c(Cc3ccc(F)cc3)nc21)Nc1cccc(C(F)(F)F)c1	109	109
COc1ccccc1NC(=O)CSc1oc(-c2ccc(F)cc2)nc1S(=O)(=O)c1ccc(Br)cc1	107	111
CCc1ccc(CNC(=O)c2cc3ccccn3n2)cc1	108	103

Random excerpt: 2 compounds from above
structure	PV pol inh	PV pol inh intensity
CCc1ccc(CNC(=O)c2cc3ccccn3n2)cc1	108	103
CCn1c(SC)nc2c([nH]c3ccccc32)c1=O	104	105

The listing continues:
structure	PV pol inh	PV pol inh intensity
COc1ccc(CCNC(=O)C2CCN(c3ncnc4c3nc3n4CCCCC3)CC2)c(OC)c1	114	117
CCOCCCNC(=O)c1cc2c(=O)n(C)c3ccccc3c2n1C	104	107
O=C(CSc1nc2ccccc2nc1Cc1ccccc1)Nc1ccccc1C(F)(F)F	105	103
CCOc1ccc(S(=O)(=O)NCCc2csc(-c3ccc(Cl)cc3)n2)cc1	102	101
COCCOC(=O)c1c(C)oc2c1cc(NS(=O)(=O)c1ccc(Cl)c(C)c1)c1ccccc12	109	110
Cc1ccc(CNC(=O)c2c(O)nc3c(C)cccn3c2=O)cc1	109	113
COc1ccccc1NC(=O)c1nnn(-c2ccc(F)cc2)c1C	108	109
CCCCOc1ccc(C(=O)NCCc2sc3nc(-c4ccc(OC)cc4)nn3c2C)cc1	109	108
COc1ccc(-c2nc3ccccc3o2)cc1NC(=O)c1ccc(-c2cccc(Cl)c2C)o1	107	113
Cc1cc(O)c(C(c2ccc(F)cc2)N2CCN(c3ccccc3)CC2)c(=O)n1Cc1ccco1 (stereo unspecified)	107	110
CCN(CC)Cc1c(NC(=O)c2ccc(OC)cc2)sc2c1CCCC2	101	106
CCCCOc1ccc(NC(=O)CSc2ccc(C(=O)O)cn2)cc1	113	113
N#Cc1c(C(F)(F)F)cc(-c2cccs2)nc1SCc1ccc(F)cc1	109	107
CCCCc1nn2c(=O)cc(COC(=O)c3ccc(NC(=O)c4cccc(OC)c4)cc3)nc2s1	103	98
Cc1ccc(N2CC(NC(=O)c3ccco3)CC2=O)cc1C (stereo unspecified)	101	104
COc1cc(C(=O)NCC(c2cccnc2)N2CCc3ccccc32)cc(OC)c1OC (stereo unspecified)	102	105
COc1ccc(S(=O)(=O)N(CC(=O)NCc2ccc(C)cc2)c2ccc(Cl)cc2)cc1	107	105
CCN(CC)c1ccc(C(=O)NCc2nc3cccnc3n2Cc2ccc(C)cc2)cc1	117	119
COc1cccc(C(=O)Nc2cccc(-c3cn4ccsc4n3)c2)c1OC	104	109
Cc1cccc(Oc2nc3ccccn3c(=O)c2/C=C(\C#N)c2nc3ccccc3s2)c1C	98	112

Entries of single compounds as entered above.
N#Cc1ccccc1Cn1c(SCC(=O)NCc2ccccc2)nc2ccccc21 is listed with PV pol inh: 106; PV pol inh intensity: 105
COc1ccc(S(=O)(=O)N(CC(=O)NCc2ccc(C)cc2)c2ccc(Cl)cc2)cc1 is listed with PV pol inh: 107; PV pol inh intensity: 105
CCn1c(C(=O)N2CCCC(C(=O)N3CCN(c4cc(C)ccc4C)CC3)C2)cc2sccc21 (stereo unspecified) is listed with PV pol inh: 104; PV pol inh intensity: 108

Rewritten with values under each structure: part of the list above
Each structure is followed by: PV pol inh	PV pol inh intensity
- O=C(CSc1nc2ccccc2nc1Cc1ccccc1)Nc1ccccc1C(F)(F)F
→ 105	103
- CCOc1ccc(S(=O)(=O)NCCc2csc(-c3ccc(Cl)cc3)n2)cc1
→ 102	101
- COCCOC(=O)c1c(C)oc2c1cc(NS(=O)(=O)c1ccc(Cl)c(C)c1)c1ccccc12
→ 109	110

Next part
structure	PV pol inh	PV pol inh intensity
CC(C)CC(=O)Nc1ccc(C(=O)OCc2cc(=O)n3nc(C(C)C)sc3n2)cc1	101	97
COc1ccc(N(CC(=O)N2CCc3ccccc3C2)S(=O)(=O)c2ccccc2)cc1	105	109
COc1ccc(-n2nc(C(=O)N3CCN(c4ccccc4OC)CC3)c3c4ccccc4n(C)c3c2=O)cc1	112	111
O=C(COc1ccccc1)Nc1nnc(S(=O)(=O)N2CCCCCC2)s1	99	102
CCc1ccc(NC(=O)c2ccc(F)c(S(=O)(=O)NC3CCCCCC3)c2)cc1	111	114
CCc1ccc(-n2c(=O)c3c(C)c(C(=O)N(C)C)sc3n(Cc3cccc(C)c3)c2=O)cc1	106	108
CC(C)Cn1c(=O)c2ccccc2n2c(CCC(=O)NCc3ccc(Cl)cc3)nnc12	100	103
CCc1c(C)sc2c1CCN(Cc1ccc(C#N)cc1)C2c1ccccc1 (stereo unspecified)	118	126
CCC(Oc1ccccc1)C(=O)Nc1ccc(OCc2cc(=O)n3ccc(C)cc3n2)cc1 (stereo unspecified)	111	116
CCN(CC)c1ccc(NC(=O)CN2CCN(S(=O)(=O)c3ccc(C(C)C)cc3)CC2)cc1	100	101
Fc1ccc(C(NCCc2ccc(Cl)cc2)c2nnc(-c3ccccc3)o2)c(Cl)c1 (stereo unspecified)	91	85
Cc1ccc(NC(=O)c2c(C)oc3ccc(O)c(CN4CCN(Cc5ccccc5)CC4)c23)cc1	103	105
COc1ccc2c(c1)CCc1c(C(=O)Nc3ccc(F)c(Cl)c3)noc1-2	105	107
COc1ccc(C(=O)N/C(=C\c2cn(S(=O)(=O)N(C)C)c3ccccc23)C(=O)NCCCn2ccnc2)cc1	111	111
Cc1ccc(-n2nc3c(N4CCC(C(=O)N5CCCCC5)CC4)nnc(C)c3c2C)cc1	105	106
COc1cc(C2N=C(N)Nc3nc4ccccc4n32)ccc1OCC(=O)O (stereo unspecified)	110	114
CC(C)CC(=O)Nc1ccc2nc(SCC(=O)N3CCCC3)sc2c1	113	115

Screens from PubChem BioAssay.

These rows are one share of the data; rates above refer to the full screens.
